Bioassay records (PubChem)
Sa RN4220 lethal = kills Staphylococcus aureus RN4220; S. aureus RN4220 growth, OD600, 16 h; inhibition, % (test concentration not listed); actives 0.33% (n = 330,000); AID 1259311;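 active = z-score of -3 or lower and OD600 up to 0.18 on both plates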;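 note: plate controls were untreated cells for no effect and reference antibiotic for full effect; stock transfer was 100 nL into about 80 µL; one replicate is shown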
PrP UTR inh = inhibition of PrP 5' UTR reporter expression. cell-based PrP 5' UTR mRNA reporter, plate reader. inhibition, % (concentration not given with the values). actives 0.35% (n = 340,000);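 active = every replicate at 50% or more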;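 note: 0 = median of the neutral control wells; tested in H4 reporter cells; numbers are from one replicate; inactives centre near -14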
Bead autofluor = counter-screen for toxin protease inhibitors: compound fluorescence | fluorescence intensity (no concentration beside the values) | compound autofluorescence counterscreen, microsphere flow cytometry; hits give high values | actives 3.1% (n = 360,000);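 active = at least 3 SD above the mean of all compounds, about 16000 in these data; inconclusive = too few beads counted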;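 note: 100 nL of 1 mM stock went into each well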
Mtb hypoxia inh = Mtb hypoxia fluorescent reporter inhibition. M. tuberculosis hypoxia-regulated fluorescent reporter, fluorescence. AID 1159583. actives 0.1% (n = 300,000). fluorescence inhibition, % (no concentration beside the values);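 active = 35 to 45% if threefold the growth effect, above 45% if 1.5-fold the growth effect; inactive = the rest, general growth blockers included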;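 note: wells of about 50 µL received 100 nL stock; 0% = vehicle wells and 100% = reference inhibitor wells; whole bacteria with a GFP reporter of the hypoxia response; strong numbers were not always called active; many hits fall short of the cut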
ugtP null kill = growth inhibition of S. aureus ugtP deletion strain; S. aureus RN4220 ugtP deletion, OD600 growth, 16 h; some inactives read as strong as hits; actives 0.54% (n = 330,000); growth inhibition, % (test concentration not listed); AID 1259309;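 active = z-score under -3 and OD600 up to 0.15 on both plates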;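 note: plate controls were untreated wells for no effect and antibiotic for full effect; wells of about 80 µL received 100 nL stock; the first replicate is given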
BJeLR viability = kills HRASV12-expressing BJeLR cells; BJeLR (HRASV12) viability, CellTiter-Glo ATP luminescence, 48 h; reference of the scale not given here; inhibition, % (concentration not given with the values); actives 0.17% (n = 300,000); AID 1554;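 active = replicate mean above 50%; inconclusive = above 50% but judged a plate artefact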;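 note: 50 nL library stock added to about 25 µL; numbers are from one replicate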
Mtb hypoxia inh growth = also measured in Mtb hypoxia inh; calls as there; growth inhibition, %; measured here: M. tuberculosis growth (absorbance);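 0% = vehicle and 100% = reference antibiotic; read after six days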
Starred values were filed as active, the others as inactive; ? = inconclusive; . = not tested or not shown; & = joins results of further samples.

SMILES	Sa RN4220 lethal	PrP UTR inh	Bead autofluor	Mtb hypoxia inh	Mtb hypoxia inh growth	ugtP null kill	BJeLR viability
CC(CCCC(C)(C)O)NC(=O)c1ccc(OC2CCN(C(=O)C3CC3)CC2)cc1 (stereo unspecified)	.	-16	4153	.	.	.	4
COc1cccc(CNCCO)c1OCc1ccc(Cl)cc1	6.1	-41	4481	20	11	15	1
Cc1cc(C)n2nc(SCc3ccccc3F)nc2n1	6.1	-22	3718	8	5	7	9
Cc1ccc(C2CC(c3ccco3)=NN2S(C)(=O)=O)cc1 (stereo unspecified)	6.2	-56	10775	18	6	8	-10
Cc1ccc(NC(=O)/C(C#N)=C(\N)C(Cl)(Cl)Cl)nc1	10	-43	8853	18	12	-1	49
COC(=O)CNC(=O)Cn1c(=O)n(Cc2ccc(F)cc2)c(=O)c2sccc21	-1.8	-70	3068	-10	-14	5	-4
CC(C)CC(=O)Nc1ccccc1Oc1ccccc1	1.0	-8	.	16	-25	2	-2
CC(CC(=O)Nc1ccccc1C(F)(F)F)c1ccccc1 (stereo unspecified)	-4.5	-5	1915	-2	5	-9	-5
O=C(Nc1cccc(C(F)(F)F)c1)C(Sc1n[nH]c(=O)[nH]c1=O)c1ccccc1 (stereo unspecified)	1.4	-11	3960	-1	5	2	-2
CCOc1ccc(N2CC(C(=O)N3CCc4ccccc4C3)CC2=O)cc1 (stereo unspecified)	-0.2	3	2665	-2	6	-5	-8
CC(C)NC(=O)CSc1nc(N)c(-c2ccccc2)c(=O)[nH]1	1.9	-17	3646	2	4	1	8
Cn1c(=O)c(-c2ccccc2)cc2ccccc21	3.3	-25	3973	5	13	0	.
Cn1nc(C(=O)NCc2ccccc2CN2CCCC2)c2ccccc2c1=O	-0.1	-26	6267	-2	0	3	.
COc1ccc(O)c(C=NNc2nc(C)cc(-c3ccccc3)n2)c1	-5.6	.	.	8	2	-12	.
COc1ccc(CNc2nc3ccccc3n2CCN2CCCCC2)cc1	3.1	-12	2732	9	18	-4	0

(more compounds)
SMILES	Sa RN4220 lethal	PrP UTR inh	Bead autofluor	Mtb hypoxia inh	Mtb hypoxia inh growth	ugtP null kill	BJeLR viability
CCN(CC)S(=O)(=O)c1cc(NC(=O)Cc2ccsc2)ccc1C	0.5	-13	4209	15	10	4	-9
CC1CCCN(CCC(=O)c2ccccc2)C1 (stereo unspecified)	0.6	-14	2744	20	8	7	.
CSCC[C@H](NC(=O)[C@@H]1Cc2ccccc2CN1)C(=O)NC[C@H]1CC[C@H](C(=O)O)CC1	.	-22	2943	.	.	.	0
FC(F)(F)c1cc(Cl)c2nnc(-c3ccccn3)n2c1	0.4	-11	3886	-11	-5	2	-5
COC(=O)c1ccc(NC(=S)NCCc2ccccc2)cc1	1.0	-18	3372	16	3	-13	-1
Cc1nc2c(C)cccc2cc1C(=O)N/N=C/c1cccnc1	.	-12	9651	.	.	.	-2
COc1cc(C2CC=C(C(=O)O)C(c3ccccc3)N2S(=O)(=O)c2ccc(C)cc2)cc(OC)c1OC (stereo unspecified)	2.6	.	.	10	5	9	.
Cc1ccc(NC(=O)CSCC(=O)N(C)CCOc2ccc(Cl)cc2)cc1	-1.8	-8	5546	4	19	0	.
Cc1ccc2c(c1)C1CN(C)CCC1N2C(=S)Nc1cccnc1 (stereo unspecified)	2.7	-2	5098	-10	3	2	-6
COc1cc(CNc2ccc3[nH]c(=O)[nH]c3c2)cc(Br)c1OCC(=O)NC(C)(C)C	-0.2	-25	9720	-6	0	-5	-8
Cc1c(C(=O)O)oc2ccc(S(=O)(=O)NCc3ccc4c(c3)OCO4)cc12	3.7	-18	11177	-7	1	7	3
Cc1cccc(C(=O)NCCCNC(=O)c2cccc(C)c2)c1	-0.6	-16	3070	16	13	-6	-2
Cc1ccc(S(=O)(=O)Nc2ccccc2F)cc1C(=O)N1CCCC1	1.7	-7	3775	4	4	-1	.
O=C(CN1C(=O)c2ccccc2C1=O)Nc1ccccc1C(=O)N1CCCC1	2.6	-19	5603	2	7	4	-4
Cc1cc(C)nc(N(C#N)Cc2ccc(Cl)cc2)n1	9.4	-11	4442	18	3	6	-13

Other records follow.
SMILES	Sa RN4220 lethal	PrP UTR inh	Bead autofluor	Mtb hypoxia inh	Mtb hypoxia inh growth	ugtP null kill	BJeLR viability
COc1ccc(NC(=O)c2nc[nH]c2C(=O)NC(C)c2ccccc2)cc1 (stereo unspecified)	0.3&-2.2	.	.	13&8	9&20	-4&-10	.
CCCC1CCC(c2ccc(OCC)cc2)=CC1=O (stereo unspecified)	11	-56	4281	24	19	4	7
CCc1nc2scc(-c3cccs3)c2c(=O)o1	7.4	-6	2750	6	4	-6	-1
CC1(C)CC(=O)c2ccc(OCc3ccc([N+](=O)[O-])cc3)cc2O1	11	-85	?	19	5	-14	-18
CN(CC(=O)Nc1ccccc1C(=O)NC1CC1)Cc1ccccc1F	5.4	-24	5312	7	6	3	.
Cc1nn(-c2ccccc2)c(C)c1C(=O)OCC(=O)Nc1ccccc1C(F)(F)F	1.8	-16	6627	-8	-4	4	.
Cc1ccc(C(=O)NCC(=O)NC2CC2)cc1	-0.5	.	?	-5	-6	-2	.
Cc1ccc(S(=O)(=O)N2CCN(c3ccccc3)CC2)s1	2.0	-27	?	12	5	7	.
CCSc1nnc(NC(=O)CSC2=NN3CCCC(=O)N=C3S2)s1	.	-23	4356	.	.	.	0
Cc1cn2c(=O)c(C(=O)NCc3ccc4c(c3)OCO4)cnc2s1	1.5	-7	?	3	8	11	-7
CC(=O)Nc1ccc2c(c1)nc(CCN1CCOCC1)n2C	3.6	1	4034	6	-2	5	-1
O=C(CCSCCc1ccncc1)NCCCN1CCOCC1	-11	-20	3222	14	3	-1	-2
O=C(NCc1ccncc1)c1nnc(Cc2c(F)cccc2Cl)o1	0.9	-4	4245	-2	17	0	-9
S=C(Nc1ccccc1Cl)N1CCCC1	-0.9	-19	2831	0	3	11	0
COc1ccccc1OCCCCN1CCN(C(c2ccccc2)c2ccccc2)CC1	-5.3	-52	8953	13	-1	9	22

Part of the list above, as labelled records.
CC(=O)Nc1ccc2c(c1)nc(CCN1CCOCC1)n2C
  Sa RN4220 lethal: 3.6 | PrP UTR inh: 1 | Bead autofluor: 4034 | Mtb hypoxia inh: 6 | Mtb hypoxia inh growth: -2 | ugtP null kill: 5 | BJeLR viability: -1
O=C(CCSCCc1ccncc1)NCCCN1CCOCC1
  Sa RN4220 lethal: -11 | PrP UTR inh: -20 | Bead autofluor: 3222 | Mtb hypoxia inh: 14 | Mtb hypoxia inh growth: 3 | ugtP null kill: -1 | BJeLR viability: -2

The list continues:
SMILES	Sa RN4220 lethal	PrP UTR inh	Bead autofluor	Mtb hypoxia inh	Mtb hypoxia inh growth	ugtP null kill	BJeLR viability
Cc1nc2ccc(S(=O)(=O)NC(C(=O)NCc3cccs3)C(C)C)cc2s1 (stereo unspecified)	2.3	-22	5606	.	.	4	-2
CCOC(=O)N1CCN(S(=O)(=O)/C=C/c2ccccc2)CC1	0.3	-31	9917	0	-3	-3	-9
Oc1c(Cl)cccc1C=Nc1cc(C(F)(F)F)ccc1N1CCCC1	-15	-12	2360	2	10	-12	3
CC(=O)c1cccc(OCC(=O)N2CCCc3ccccc32)c1	5.7	-20	3701	-4	8	0	-2
CCc1nnc(NC(=O)C(=O)NCCOC(=O)c2ccccc2Cl)s1	-0.8	-22	5550	1	3	-5	-5
CCCCN(C)CCN1C(=O)C2C(C(=O)Nc3ccc(C)cc3)C3C=CC2(O3)C1C(=O)NC1CCCCC1 (stereo unspecified)	-2.3	9	3263	6	-1	-1	-7
Cc1ccc(-c2nnc(SCC(=O)Nc3ccccc3F)o2)cc1	4.5	89*	6031	.	.	10	56*
CC(OC(=O)CCNS(=O)(=O)c1cccs1)C(=O)Nc1ccc(S(N)(=O)=O)cc1 (stereo unspecified)	5.9	-18	3555	3	3	8	.
Cc1cc(OCC(=O)NCc2ccncc2)c2c(C)c(C)c(=O)oc2c1	-1.4	-5	5341	2	1	3	-1
CN(c1ccccc1)S(=O)(=O)c1ccc(Cl)nc1	7.2	-8	4074	11	0	4	8
Cc1c(NC(=O)Cc2noc3ccccc23)cccc1[N+](=O)[O-]	4.1	-20	3211	-3	-5	4	-5
O=c1[nH]nc(Cc2ccc(-c3ccc(Cl)cc3)o2)c2ccccc12	0.0	-3	3496	14	5	3	-1
OC(CNCc1ccccc1Cl)COc1ccc(F)cc1 (stereo unspecified)	5.4	-20	4015	4	1	17	-3
CC(C)c1[nH]nc2c1C(C1C=CCCC1)C(C#N)=C(N)O2 (stereo unspecified)	9.6	-16	3356	8	14	2	5
CCOC(=O)N1CCN(c2c(N3CCN(c4cccc(C)c4C)CC3)c(=O)c2=O)CC1	-1.1	-2	6094	-2	4	5	.

Following part
SMILES	Sa RN4220 lethal	PrP UTR inh	Bead autofluor	Mtb hypoxia inh	Mtb hypoxia inh growth	ugtP null kill	BJeLR viability
CCN(CC)c1ccc(/C=N/Nc2ccccc2)c(O)c1	.	-7	22767*	.	.	.	-1
COCCn1cc(C(=O)NCCN(C)C)c2c3ccccc3n(C)c2c1=O	6.0	-10	3585	16	3	11	2
CCOc1ccc(S(=O)(=O)N(C)c2ccc(OCC(=O)NCC3CCCCC3)cc2)cc1	-3.7	3	?	2	1	-16	.
CCN(CC)C(=O)C(=O)N/N=C/c1ccc(Br)cc1	.	-19	2265	.	.	.	-2
CC(=O)C1=C(O)C(=O)N(CCCCCC(=O)O)C1c1ccc(N(C)C)cc1 (stereo unspecified)	-6.3	-15	4553	.	.	-2	0
Cc1nnc(NC(=O)CS(=O)(=O)Cc2ccccc2)s1	-0.5	4	5899	-4	-8	-4	-4
CN(CC(=O)Nc1cccc(F)c1)C(=O)/C=C/c1ccc(S(=O)(=O)N2CCCCCC2)cc1	2.2	-21	5252	7	5	-4	.
O=C(NCC(=O)N1CCN(c2ccccc2O)CC1)c1ccc2c(c1)OCO2	4.5	-6	6193	4	-1	-9	-2
O=C(NC(O)C(=O)c1ccccc1)c1ccccn1 (stereo unspecified)	4.0	-16	3632	8	9	4	-1
Cc1ccc2c(c1)C1CN(C)CCC1N2S(=O)(=O)c1cc(C(F)(F)F)ccc1Cl (stereo unspecified)	-3.7	-19	2865	4	5	-8	.
O=C(NN=Cc1ccc(-n2ccnc2)cc1)c1cccs1	1.5	.	.	10	0	1	.
CN(CC(=O)Nc1cccc(F)c1)C(=O)CSc1nc2ccccc2s1	6.6	-23	4771	7	-2	2	-8
Cc1ccc(NC(=O)c2cnccn2)c(Br)c1	1.2	-48	2980	4	-1	-3	-1
O=C(CN1CCN(S(=O)(=O)c2ccc(Cl)cc2)CC1)Nc1ccc2c(c1)OCCO2	-3.3	-13	2370	.	.	-9	-4
Cc1nn(C)cc1CNCc1c(C(=O)N2CCCCC2)nc2c(C)cccn12	4.4	-16	4210	2	-37	9	1

Later entries.
SMILES	Sa RN4220 lethal	PrP UTR inh	Bead autofluor	Mtb hypoxia inh	Mtb hypoxia inh growth	ugtP null kill	BJeLR viability
CCC(=O)Nc1cccc(-c2ccc(N3CCC(C)CC3)nn2)c1	-0.5	24	4363	-3	-13	-2	-13
O=C(c1cccs1)n1nc(-c2ccccc2)nc1NCc1ccco1	-3.6	-25	9108	6	3	-2	-14
COc1ccc(OCC(=O)Nc2c(Cl)ccc3nsnc23)cc1	3.9	-7	5464	-2	0	9	-1
O=C(C1=C[C@@H](c2ccc(C(F)(F)F)cc2)C[C@@H](OCCCCO)O1)N1CCOCC1	.	-10	3692	.	.	.	5
O=C(CCC(=O)N1CCN(c2ccccc2F)CC1)c1ccc(F)cc1	2.8	-21	5150	20	5	0	-5
COCCN(Cc1cc2cc(C)ccc2n2nnnc12)C(=S)Nc1ccc(C)cc1	18	-26	4496	5	4	19	-15
CC(C)(C)C(=O)Nc1ccc(C(=O)Nc2cc(NC(=O)c3ccc(NC(=O)C(C)(C)C)cc3)cc(C(=O)O)c2)cc1	1.2	-28	3938	5	-8	5	2
N#Cc1c(N)n(-c2ccc(O)cc2)c2nc3ccccc3nc12	5.0	-47	4130	1	4	7	-13
Cc1nc(NC(=O)CSc2nnc(C3CC3)n2N)c(Cl)cc1Cl	1.9	2	3759	-3	-1	-1	.
CCOC(=O)C1(C(C)(C)CC)CC(CSc2nc3ccccc3[nH]2)OC1=O (stereo unspecified)	8.5	-22	3672	-2	1	1	-17
N#Cc1ccc(COc2ccc(CCO)cc2-n2nc3ccccc3n2)cc1	3.4	-18	2872	-6	12	-6	-9
CC[C@@H](NS(=O)(=O)c1ccc(C)cc1)C(=O)Oc1ccc2c3c(c(=O)oc2c1)CCC3	.	-10	2527	.	.	.	4
O=C(O)CCCNC(=O)c1ccccn1	4.5	-6	2407	3	11	4	-7
